Source: PubChem (several laboratories)
Arbovirus anti – antivirals against arbovirus infection | arbovirus infection cell-based antiviral screen | inhibition, % at 10 µM | 0.37% of 200,000 active;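 active = inhibition from about 30%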;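 also: bluetongue infection of BSR cells; cell survival read as ATP light after 72 h; 0% = infected wells without compound and 100% = uninfected wells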
Mtb growth – M. tuberculosis H37Rv growth inhibitors, H37Rv strain (AID 1626); one-dose inhibition, % at 10 µM; IC50 in µM for titrated hits; M. tuberculosis H37Rv growth inhibition; higher % means a stronger effect; 0.95% of 220,000 active;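 active = confirmed in a dose series; inconclusive = inhibition above 80% but not taken into the dose series; inactive = below 80% or under 30% at every dose of the series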;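 also: bacteria incubated seven days before Alamar blue readout; 0% = bacteria only wells and 100% = bacteria with antibiotic wells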
RecA splice inh – Mtb RecA intein splicing inhibition; cell-free RecA intein splicing, fluorescence; inhibition, %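 (about 9 µM by stock and volumes)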; 0.75% of 290,000 active; AID 2221; in the data active = inhibition above about 30%; inconclusive = no clear call, values can overlap the other calls;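 also: 0% = vehicle wells and 100% = reference inhibitor control wells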
Target sequence (P9WHJ3 whole entry, looked up, canonical isoform): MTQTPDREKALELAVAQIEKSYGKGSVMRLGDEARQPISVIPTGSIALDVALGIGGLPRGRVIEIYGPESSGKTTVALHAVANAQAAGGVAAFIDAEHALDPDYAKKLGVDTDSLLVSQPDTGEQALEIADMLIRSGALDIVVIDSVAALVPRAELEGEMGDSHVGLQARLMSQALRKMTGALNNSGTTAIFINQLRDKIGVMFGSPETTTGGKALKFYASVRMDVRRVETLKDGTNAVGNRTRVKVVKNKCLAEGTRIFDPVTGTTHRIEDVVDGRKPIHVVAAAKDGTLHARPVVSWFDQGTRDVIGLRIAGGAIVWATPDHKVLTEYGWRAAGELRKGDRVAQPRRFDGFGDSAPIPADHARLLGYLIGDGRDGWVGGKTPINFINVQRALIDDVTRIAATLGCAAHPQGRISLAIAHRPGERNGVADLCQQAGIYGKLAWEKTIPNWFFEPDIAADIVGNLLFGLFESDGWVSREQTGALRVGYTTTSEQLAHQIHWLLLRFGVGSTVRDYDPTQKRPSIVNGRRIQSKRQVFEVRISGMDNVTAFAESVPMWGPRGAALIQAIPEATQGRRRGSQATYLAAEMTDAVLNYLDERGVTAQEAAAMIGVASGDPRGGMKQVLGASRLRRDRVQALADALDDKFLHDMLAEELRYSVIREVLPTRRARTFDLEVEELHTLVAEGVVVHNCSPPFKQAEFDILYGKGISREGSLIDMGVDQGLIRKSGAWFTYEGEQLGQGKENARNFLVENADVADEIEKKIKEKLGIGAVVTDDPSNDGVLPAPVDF
Mtb bLac sens – beta-lactam sensitization of Mtb H37Rv; AID 434955; inhibition, % at 25 µM; M. tuberculosis H37Rv growth with meropenem, percent inhibition; hits of this screen are not shown here; 0.27% of 330,000 active;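 active = about 74% or more and at least 40 points above the plate without the antibiotic, then above 30% in a dose series; inconclusive = first-round hits that could not be retested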;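 also: growth measured after seven days incubation then overnight dye step; 0% = bacteria only wells and 100% = bacteria with antibiotic; twin plates without the antibiotic show which effects depend on it; some results filed as inactive read as strong as hits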
YopH PTP inh – YopH (Yersinia) phosphatase inhibition. inhibition, %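 (about 10 µM by stock and volumes)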. AID 898. fluorescence Ex485/Em525. 0.16% of 140,000 active;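 active = inhibition of 50% or more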;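 also: controls were vehicle for no effect and minimum signal wells for full effect; inactives centre near -20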
Arbovirus anti repeat – recorded beside Arbovirus anti, whose call it bears; inhibition, %; measured here: 10K subset replicate screen; many hits read low in the repeat;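 first of two repeat runs on a subset; 0% = infected and 100% = uninfected wells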
* marks the source's active call; other numbers are inactive results; ? = inconclusive; · = not tested or not shown. Only part of the results is shown; rates above refer to the full screens.

SMILES	Arbovirus anti	Mtb growth	RecA splice inh	Mtb bLac sens	YopH PTP inh	others
Cc1nn(Cc2ccccc2)c(C)c1CCC(=O)O	4	-8%	1.0	-1	5
CCOC(=O)C(C)n1cnc2c(cnn2-c2ccc(Cl)cc2)c1=O (stereo unspecified)	3	6%	2.2	2	-24
CCCC(=O)N(c1ccc(OC)cc1)C1C=CS(=O)(=O)C1 (stereo unspecified)	-1	-5%	1.7	2	-17
CCOC(=O)c1sc(NS(=O)(=O)c2ccccc2)nc1C	-5	4%	-1.4	0	-166
CCCCNC(=O)C1CC(=O)N(CCC(C)C)C1 (stereo unspecified)	0	-9%	1.3	-1	-14
COc1ccc(C)cc1NC(=O)NC(C)c1ccncc1 (stereo unspecified)	8	6%	-0.9	3	·
N#C/C(=C\c1cccc(Oc2ccc(C(F)(F)F)cc2[N+](=O)[O-])c1)c1nc2ccccc2[nH]1	-15	-5%	2.2	1	-21
Cc1cccc(C)c1NC(=O)CSc1cc(C(=O)c2nccn2C)c2ccccc2n1	1	-8%	1.0	5	-11
O=C(/C=C/c1ccco1)Nc1ccc2nc3n(c(=O)c2c1)CCCC3	-6	1%	-1.0	0	·
CCCCNc1ncnc2sc3c(c12)CCN(CCC)C3	·	·	-2.4	6	·
Cc1cccc(NC(=O)c2ccc3c(c2)OCCO3)n1	·	·	-3.7	-12	·
NS(=O)(=O)c1ccc(NC(=O)CCc2ccccc2)cc1	5	-7%	-2.2	-4	-16
COc1ccc(C2CC(=O)N3CN(c4ccc(C)c(Cl)c4)CSC3=C2C#N)cc1 (stereo unspecified)	1	?	8.7	-5	-25	Arbovirus anti repeat=2
O=C(Nc1nc2c(F)cc(F)cc2s1)c1ccc([N+](=O)[O-])o1	·	·	-8.6	43	·
O=C(Nc1ccccc1)/C(=C1\CCCN1)[N+](=O)[O-]	5	-2%	0.1	-2	·

Molecules from the list above with a carbonyl joined to an NH by a bond outside any ring (eight):
SMILES	Arbovirus anti	Mtb growth	RecA splice inh	Mtb bLac sens	YopH PTP inh	others
CCCCNC(=O)C1CC(=O)N(CCC(C)C)C1 (stereo unspecified)	0	-9%	1.3	-1	-14
COc1ccc(C)cc1NC(=O)NC(C)c1ccncc1 (stereo unspecified)	8	6%	-0.9	3	·
Cc1cccc(C)c1NC(=O)CSc1cc(C(=O)c2nccn2C)c2ccccc2n1	1	-8%	1.0	5	-11
O=C(/C=C/c1ccco1)Nc1ccc2nc3n(c(=O)c2c1)CCCC3	-6	1%	-1.0	0	·
Cc1cccc(NC(=O)c2ccc3c(c2)OCCO3)n1	·	·	-3.7	-12	·
NS(=O)(=O)c1ccc(NC(=O)CCc2ccccc2)cc1	5	-7%	-2.2	-4	-16
O=C(Nc1nc2c(F)cc(F)cc2s1)c1ccc([N+](=O)[O-])o1	·	·	-8.6	43	·
O=C(Nc1ccccc1)/C(=C1\CCCN1)[N+](=O)[O-]	5	-2%	0.1	-2	·

Remaining list, next part.
SMILES	Arbovirus anti	Mtb growth	RecA splice inh	Mtb bLac sens	YopH PTP inh	others
Nc1[nH]c2cc([N+](=O)[O-])ccc2c1-c1ccccn1	·	·	1.9	7	·
Cc1ccc(C(=O)Nc2ncc([N+](=O)[O-])s2)cc1	·	·	25	5	·
COc1ccc(C)cc1NC(=S)Nc1ccccc1SC	-6	-5%	5.4	-5	·
COc1ccccc1C1=NOC(Cn2c(=O)c3c(ncn3C)n(C)c2=O)C1 (stereo unspecified)	-2	-6%	-2.0	-27	-28
Cc1ccc(C)c(NC(=O)c2ccccc2NS(=O)(=O)c2cc([N+](=O)[O-])ccc2C)c1	-8	9%	5.6	1	3
CC(=O)c1ccc(NC(=O)c2cnsn2)cc1	-2	-5%	-1.1	-16	·
COc1ccc(CCNC(=O)N2c3ccccc3Sc3ccccc32)cc1	·	21%	13	1	-15
COc1cc(SC)ccc1C(=O)Nc1ncc(C)s1	22	-7%	0.5	41	·
COCCCn1c(=O)c2sccc2n(Cc2ccccc2)c1=O	·	·	0.3	-4	·
O=C(/C=C/c1ccccn1)c1cc(Br)ccc1O	·	3%	2.7	·	·
Cc1cccc(Cn2cnc3ccccc32)c1	5	9%	-3.7	-2	-13
CC(C)NC(=O)CCN1C(=O)c2ccccc2Sc2ncccc21	·	·	-2.9	-6	·
CC(=O)c1cc(C(=O)N2CCc3c([nH]c4ccccc34)C2CC(C)C)[nH]n1 (stereo unspecified)	0	17%	1.1	1	·
Cc1cccc(C(C(=O)NC2CCCCC2)N(C(=O)c2csnn2)C2CC2)c1 (stereo unspecified)	·	·	-3.2	-2	·
Cc1cc(NC(=O)CSc2nc(-c3cccnc3)ccc2C#N)no1	-1	-6%	-1.7	-6	3
CC(Sc1nc2ccccc2[nH]1)C(=O)NC1CCCCC1C (stereo unspecified)	·	·	1.9	-5	·
CCOC(=O)C1CCN(c2cc(=O)n(-c3ccccc3Cl)c(=O)[nH]2)CC1	5	-12%	-0.7	-4	-35
NC(=O)COC(=O)c1cc(=O)[nH]c2ccccc12	·	-2%	0.0	-1	·
CCCc1cc(=O)n2[nH]c(C)c(-c3ccc(OC)cc3)c2n1	·	·	-0.3	57	·
Cc1cccc(/C(N)=N/OC(=O)CCCN2C(=O)c3ccccc3C2=O)c1	0	-8%	2.2	-8	-27
COC(=O)Cn1ncc(N2CC(C)OC(C)C2)c(Cl)c1=O (stereo unspecified)	·	·	2.9	-1	·
CC(C)CN(C(=O)COC(=O)CNC(=O)c1ccc(Cl)cc1)C1CCS(=O)(=O)C1 (stereo unspecified)	7	3%	0.5	2	·
CN(C)CCCN(C(=O)c1ccc(S(=O)(=O)N2CCOCC2)cc1)c1nc2ccc(F)cc2s1	·	·	-3.2	-5	·
Cc1ccc(NC(=O)N2CCC(C(=O)Nc3ccc(C)cc3C)CC2)cc1	-3	-1%	0.3	-5	-15
O=C(NCc1ccc2c(c1)OCO2)c1cnc2n(c1=O)CCS2	-2	-5%	-7.0	-1	-32	Arbovirus anti repeat=2
CCCc1ccc(-c2ccc(-c3noc(-c4ccncc4)n3)cc2)nc1	·	·	1.8	1	·
CCn1c(Cc2ccccc2)nnc1SCC(=O)NC(C)(C)C	-1	-12%	-4.1	1	-37
CCOCCCNCc1ccc(Cl)cc1	-10	-4%	-0.7	16	-42
O=C(O)c1cnn2c(-c3ccc(F)cc3)ccnc12	-5	-3%	-0.9	2	·
O=C(/C=C/c1ccco1)N(Cc1cccc(Cl)c1)C1CCS(=O)(=O)C1 (stereo unspecified)	·	4%	3.4	-5	·
CCOc1ccc(NC(=O)c2cccc3c2C(=O)N(CCOC)C3)cc1	4	-13%	-1.3	-2	-13
CCN(C(=O)COC(=O)c1cc(S(=O)(=O)N2CCOCC2)ccc1F)C1CCS(=O)(=O)C1 (stereo unspecified)	·	·	0.2	-5	·
Cn1c(C2CCCN2C(=O)OC(C)(C)C)n[nH]c1=S (stereo unspecified)	6	-9%	-0.1	-2	-16
O=C(Nc1cccnc1)c1ccccc1-c1nc(-c2ccccc2F)no1	-1	-4%	4.5	-6	-18
Cc1cccc(C(=O)NCCCNC(=O)c2ccccn2)c1	·	·	-0.4	-2	·
CCOc1ccc(C(=O)NNC(=O)C2CC(=O)N(c3ccc(C)cc3)C2)cc1 (stereo unspecified)	·	·	-2.7	-12	·
O=C(Nc1nc2ccccc2[nH]1)Nc1ccccc1F	·	·	-2.9	56	·
CCNC(=O)CN1C(=O)NC2(CCOc3ccccc32)C1=O (stereo unspecified)	·	·	-0.4	-5	·
Cc1c(CC(=O)NCCCC(=O)O)c(=O)oc2c(C)c3oc4c(c3cc12)CCCC4	·	·	-6.0	8	·
Cc1ccccc1C(=O)Nc1cc(S(=O)(=O)N2CCCCC2)ccc1N1CCN(C)CC1	5	-8%	1.7	-1	-29
O=C(CCCCCN1C(=O)[C@@H]2Cc3ccccc3CN2C1=O)NCCc1ccccc1	·	·	2.4	4	·
Cc1nc2ccc(C(=O)Nc3cccc([N+](=O)[O-])c3)cc2s1	-9	0%	-2.3	0	·
Cc1cc[n+](-c2nc([O-])sc2/C=N/Nc2ccc([N+](=O)[O-])cc2)cc1	-2	-5%	·	-1	2
COc1cccc(CC(=S)N2CCOCC2)c1	-3	1%	0.1	-3	-52
CN(C)c1ccc(C(O)P(=O)(OCc2ccccc2)c2ccc(N(C)C)cc2)cc1 (stereo unspecified)	·	-10%	-0.2	18	·
COc1cc(/C=C/C(=O)OCC(=O)NC(=O)NC2CCCCC2)ccc1OC(F)F	·	·	1.9	-9	·
Cc1cc(O)cc2c(=O)c3ccccc3sc12	4	46%	-5.3	1	·
Cc1ccc(NC(=S)NNC(=O)c2ccco2)cc1	3	7%	·	-5	-5
C=CCN1C(=O)c2ccc(C(=O)N(C)CC(=O)Nc3cccc(F)c3)cc2C1=O	·	·	1.1	5	·
COc1cc(NC(=O)c2ccc(Br)o2)c(C(=O)O)cc1OC	13	-4%	1.0	0	-54
CC(C(=O)N1CC2(C)CC1CC(C)(C)C2)N1C(=O)c2ccccc2C1=O (stereo unspecified)	-4	-9%	3.0	-15	-21	Arbovirus anti repeat=0
Cc1nn(C(=O)c2ccco2)c(C)c1Sc1ccc([N+](=O)[O-])cc1	14	8%	-1.0	1	-25
COc1ccc(-c2nn(-c3ccccc3)cc2C(=O)N2CCN(S(=O)(=O)c3cccc(F)c3)CC2)cc1	·	·	-0.2	11	·
C=CCOc1c(Cl)cc(CNn2cn[nH]c2=S)cc1OC	3	3%	-1.8	-8	·
Cc1cc(C)nc(SCC(=O)NC2=NC(=O)C(C)S2)n1 (stereo unspecified)	6	9%	-0.2	1	-16
O=C(O)c1ccc(CSc2nnnn2C2CCCCC2)cc1	10	-18%	-0.9	-1	2
O=C(Cc1cccs1)NCCc1cn2ccccc2n1	-1	-2%	-1.1	-1	·
O=[N+]([O-])/C(C=Nc1ccccc1O)=C\Nc1ccccc1O	·	?	2.6	·	·
COc1cc(C(=O)N/C(=C\c2cn(C)c3ccccc23)C(=O)NCCN2CCOCC2)cc(OC)c1OC	·	·	-0.5	3	·
Clc1ccc(-c2ccc(/C=N/Nc3cc(N4CCOCC4)nc(N4CCOCC4)n3)o2)cc1	-27	?	-0.6	99	-22
Cc1ccc(/C=C/C(=O)Nc2cc(=O)n(C)c(=O)n2C)o1	3	-3%	-4.3	2	-13
COc1ccc(-c2nn(CCC#N)cc2C(=O)Nc2ccc(C(C)=O)cc2)cc1	·	·	2.3	0	·
